High-throughput results: PubChem BioAssay, National Center for Advancing Translational Sciences (NCATS)
Rango-impB inh: inhibitors of Rango-importin beta complex formation. Q14974. Rango CFP/YFP FRET sensor + importin beta, 45 min. Potency, µM (top dose mostly 92.2 µM), for inactives: at the highest dose inhibition of complex formation. hit rate 0.031% among 340,000; active = rising FRET ratio curve, often small or poorly fitted; inconclusive = mostly compound fluorescence or quenching in the first reads; inactive = flat curves in all reads;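 also: potency is read from the fitted curve at half-maximal effect; 0% = DMSO wells and 100% = buffer wells lacking importin beta; nearly all actives have a fitted effect of over 15% in size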
Target sequence (Q14974 whole entry, looked up): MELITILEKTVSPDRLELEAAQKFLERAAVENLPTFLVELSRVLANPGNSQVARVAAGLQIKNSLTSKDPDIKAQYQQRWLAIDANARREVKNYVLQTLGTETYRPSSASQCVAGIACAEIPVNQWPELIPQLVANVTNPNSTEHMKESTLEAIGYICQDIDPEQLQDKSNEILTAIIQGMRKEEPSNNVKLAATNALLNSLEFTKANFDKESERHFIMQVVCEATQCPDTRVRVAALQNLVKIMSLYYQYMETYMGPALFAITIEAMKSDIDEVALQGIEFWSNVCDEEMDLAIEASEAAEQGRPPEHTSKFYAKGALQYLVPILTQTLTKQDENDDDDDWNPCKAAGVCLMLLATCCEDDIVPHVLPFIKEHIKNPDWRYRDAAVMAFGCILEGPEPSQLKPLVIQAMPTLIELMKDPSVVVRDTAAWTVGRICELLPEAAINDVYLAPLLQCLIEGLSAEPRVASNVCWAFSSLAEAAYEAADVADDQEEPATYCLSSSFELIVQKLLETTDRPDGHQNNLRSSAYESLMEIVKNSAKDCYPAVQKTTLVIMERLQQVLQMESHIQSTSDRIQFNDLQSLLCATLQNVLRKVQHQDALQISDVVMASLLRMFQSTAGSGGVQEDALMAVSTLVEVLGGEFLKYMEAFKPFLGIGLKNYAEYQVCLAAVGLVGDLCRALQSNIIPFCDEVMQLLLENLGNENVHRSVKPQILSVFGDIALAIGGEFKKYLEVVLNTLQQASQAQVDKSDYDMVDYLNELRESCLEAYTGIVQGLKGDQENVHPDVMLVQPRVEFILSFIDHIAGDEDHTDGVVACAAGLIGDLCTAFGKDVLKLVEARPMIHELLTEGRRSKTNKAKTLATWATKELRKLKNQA
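FRET biosensor (snurportin 1 IBB flanked by EYFP and cerulean), 50 nM, with compound 5 min, then 0.125 microM importin beta in PBS, 1 mM DTT, 0.02% Tween-20, 0.1% BSA. CFP/YFP ratio read after 45 min at room temperature; pre-read flags interference.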
GLA inh pH 4.5: blocks human alpha-galactosidase A at pH 4.5; AID 1467; 230,000 tested, under 10 active; activity change, negative = inhibition, % at 105 µM; P06280; purified enzyme, 4-MU-alpha-Gal fluorescence, pH 4.5; inconclusive = small, poorly fitted or top-dose-only inhibition, or a rising curve; inactive = flat fitted curve, though single readings scatter; no compound was filed as active;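 also: 0% = full activity with enzyme and -100% = basal without enzyme; dose as in the result columns while the protocol names 77 µM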
miR-21 FLuc: miR-21 reporter, rising signal. HeLa miR-21 FLuc reporter, luciferase, 48 h. AID 2288. Potency, µM (series often up to 38.3 µM), without a hit: at the highest dose reporter change, positive = more light. 340,000 tested, under 10 active; active = well fitted rising curve with a large enough effect; inconclusive = small, poorly fitted or top-dose-only effect; inactive = no such curve, though single readings can be large or run the other way;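 also: % of control where 0% means no effect; miR-21 action dims this reporter so a rising signal means less miR-21 action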
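Luminescence from a firefly luciferase reporter carrying a miR-21 binding site downstream, stably expressed under a CMV promoter in HeLa cells that make miR-21 endogenously, reports miRNA modulation after 48 h compound exposure up to approximately 40uM final.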
Rango release inh: inhibitors of RanGTP-induced Rango-importin beta complex dissociation; O95149+P62826; Biochemical FRET Rango-importin beta, RanGTP-induced dissociation; Potency, µM (doses to about 46.1 µM), for the others: at the highest dose activity change, negative = inhibition; hit rate 0.071% among 340,000; active means falling FRET ratio curve, often poorly fitted, with flat reads before Ran was added; inconclusive means other falling curves, or compound fluorescence or quenching; inactive means flat or rising ratio curve;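 also: potency is read from the fitted curve at half-maximal effect; % of control where 0% means no effect; nearly all actives have a fitted effect of over 45% in size; -100% = wells without RanGTP and RCC1; the record marks most hits as doubtful in a second field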
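Two FRET readings bracket the reaction: one 5 min after compound meets Rango–importin beta, another 45 min after RanGTP-RCC1 (0.6 uM Ran, 0.2 uM RCC1, 2 mM GTP) is added. Only the second defines inhibition.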
An asterisk follows results filed as active; ? = inconclusive; · = no result given. An excerpt; the hit share may differ from the screen's.

compound | Rango-impB inh | GLA inh pH 4.5 | miR-21 FLuc | Rango release inh
O=[N+]([O-])c1ccc(-[n+]2nc(-c3ccccc3)nn2-c2ccccc2)cc1 | -4.4% | · | 10% | -16%
Cn1cc(/C=N/n2cnc3scc(-c4ccc(Cl)cc4)c3c2=O)c2ccccc21 | -1.8% | 4 | 17% | -8%
COc1ccc(OC)c(NC(=O)c2ccc(Cl)cc2)c1 | 3.0% | 7 | -5% | -2%
Cc1nc(N2CCOCC2)c2c(C)c(C(=O)Nc3ccc(C(F)(F)F)cc3)sc2n1 | -0.2% | -21 | 19% | 3%
CCOc1ccc(CCNC(=O)c2c(C)noc2C)cc1OCC | -4.2% | · | · | 18%
CCCc1cc(=O)[nH]c(SCC(=O)Nc2ccc(OC)c(S(=O)(=O)N3CCCCC3)c2)n1 | -0.1% | · | · | 17%
Cc1ccc(C)c(C(=O)COC(=O)Cn2[nH]c(=O)c3ccccc3c2=O)c1 | -3.0% | · | · | 8%
CCC(COC)NC(=O)CCc1nnc(Cc2c[nH]c3ccccc23)o1 (stereo unspecified) | ? | · | 0% | -2%
CC1CCc2c(sc(NC(=O)C(=O)NCc3ccco3)c2C#N)C1 (stereo unspecified) | -0.1% | -9 | -10% | 14%
Cc1noc(NS(=O)(=O)c2ccc(N/C=C/C(=O)c3ccccc3)cc2)c1C | ? | 1 | -37% | ?
O=c1[nH]c(SCc2ccc(Cl)cc2)nc2ccccc12 | -2.7% | -4 | -11% | 25%
O=C(CCC(=O)N(CC(=O)NC1CCCCC1)Cc1cccs1)Nc1nccs1 | -2.7% | -7 | -1% | -21%
CC1CCCN(C(=O)C2CCN(c3ncnc4c3nc3n4CCCCC3)CC2)C1 (stereo unspecified) | 0.8% | · | 0% | 6%
C/C(=C1/SC(N2CCOCC2)=NC1=O)c1ccc(Cl)cc1 | -2.0% | 16 | -7% | 1%
CN(C)Cc1c(O)ccc2c(=O)c(-c3ccccc3Cl)coc12 | -0.2% | · | -12% | 4%
CS(=O)(=O)N(CC(=O)Nc1cccc([N+](=O)[O-])c1)c1ccccc1 | -3.7% | 2 | -1% | 0%
N=c1c(C(=O)NCc2ccc(F)cc2)cc2c(=O)n3ccccc3nc2n1Cc1cccnc1 | ? | 12 | 0% | ?
Cc1nn(-c2ccccc2)c(C)c1C(=O)OCC(=O)Nc1ccccc1F | 2.8% | · | · | -11%
Cc1ccc(C(=O)OCC(=O)c2c(N)n(C)c(=O)n(C)c2=O)cc1S(=O)(=O)N1CCOCC1 | -1.2% | · | · | 5%
CCOc1ccc(N(CC)S(=O)(=O)c2ccc3c(c2)n(C)c(=O)c(=O)n3C)cc1 | 0.2% | 2 | -4% | 6%
O=C(NC1CCCC1)C(c1ccccc1)N(C(=O)c1csnn1)c1ccccc1F (stereo unspecified) | 1.5% | · | -1% | -16%
Cc1cc(C)n(-c2nnc(C)n2/N=C/c2ccc(O)cc2)n1 | 2.9% | 10 | 0% | ?
C#CCn1c(-c2cccs2)nc2ccccc21 | -1.5% | 1 | -25% | -3%
CCCCC(=O)Oc1c(S(=O)(=O)c2ccc(C)cc2)c(C)nn1C(C)(C)C | -1.5% | · | 28% | 8%
COc1ccc(C2=CC(=O)C[C@H](c3ccc(OC)cc3)C2)cc1 | -1.3% | · | · | 3%
CSc1ncccc1C(=O)Nc1nnc(C2CC2)s1 | -0.1% | 0 | -8% | -14%
Cc1ccc(C(=O)Nc2cccc3[nH]c(C(F)(F)F)nc23)cc1 | -1.2% | · | ? | -2%
CCC(=O)NC(Nc1sc2c(c1C(=O)OC)CCC2)C(Cl)(Cl)Cl (stereo unspecified) | -1.2% | -8 | 7% | -3%
CCCC(=O)Nc1cc(C)c(NC(=O)c2ccncc2)cn1 | -0.5% | 4 | -6% | 13%
O=C(Nc1cc(C(F)(F)F)ccc1-n1cncn1)c1ccc(-c2ccccc2)cc1 | -1.5% | -10 | -11% | 16%
COc1ccc(/C=C2\Oc3cc(OCC(=O)N4CC(O)C[C@H]4C(=O)O)ccc3C2=O)cc1OC (stereo partly specified) | ? | · | 5% | ?
O=C(NCCCn1ccnc1)Nc1cccc(Cl)c1 | 0.2% | 4 | -2% | -16%
O=C1c2ccc3c4c(ccc(c24)C(=O)N1NC(=O)C(F)(F)F)CC3 | 1.0% | 4 | -6% | -12%
COc1cc(/C=C/C(=O)OCC(=O)NC2CC2)cc(S(=O)(=O)N2CCc3ccccc32)c1OC | 1.0% | 6 | -6% | -12%
O=C(COC(=O)c1sc2ccccc2c1Cl)NC1CCCCC1 | -1.1% | 7 | -25% | 24%
Cc1cc(=O)oc2cc(OCC(=O)N3CC[C@@]4(O)CCCC[C@H]4C3)c(Cl)cc12 | 0.9% | · | 1% | ?
COc1cc(OC)c(N(C)S(=O)(=O)c2cccc(C(=O)OCC(=O)N3CCOCC3)c2)cc1Cl | 3.4% | · | · | 9%
CC(C)Cc1cc(C(=O)Nc2cccnc2)no1 | -1.3% | -4 | -38% | 9%
CCOC(=O)Cc1cc(=O)n2[nH]c(C)c(-c3ccccc3OC)c2n1 | -2.7% | -8 | 2% | -7%
CC(C(=O)N1CCc2ccccc21)N1CCN(c2ccccn2)CC1 (stereo unspecified) | -2.6% | -8 | -9% | 0%
COC(=O)c1sccc1NC(=O)c1ccccc1[N+](=O)[O-] | -2.8% | 14 | -11% | -12%
COc1cc(/C=N/Nc2ccc(S(N)(=O)=O)cc2)cc(OC)c1OC | -1.8% | 0 | 15% | -8%
Cc1ccccc1-n1c(SC(C)C(=O)NCC2CCCO2)nnc1-c1ccncc1 (stereo unspecified) | -1.4% | · | · | 20%
O=C(CSc1nc(=O)n(CCN2CCOCC2)c2c1CCCC2)Nc1ccc(F)cc1F | 0.4% | · | · | 6%
CN1C(=O)C(=O)/C(=C(/O)c2ccc(Br)cc2)C1c1ccccc1F (stereo unspecified) | -3.7% | · | -7% | -6%

Sorted by the number under miR-21 FLuc (highest first): three from the list above
compound | Rango-impB inh | GLA inh pH 4.5 | miR-21 FLuc | Rango release inh
CS(=O)(=O)N(CC(=O)Nc1cccc([N+](=O)[O-])c1)c1ccccc1 | -3.7% | 2 | -1% | 0%
COC(=O)c1sccc1NC(=O)c1ccccc1[N+](=O)[O-] | -2.8% | 14 | -11% | -12%
Cc1noc(NS(=O)(=O)c2ccc(N/C=C/C(=O)c3ccccc3)cc2)c1C | ? | 1 | -37% | ?

Continued:
compound | Rango-impB inh | GLA inh pH 4.5 | miR-21 FLuc | Rango release inh
O=S(=O)(Nc1ccc(-n2cnnn2)cc1)c1ccc(Cl)cc1 | 0.3% | · | · | 3%
Clc1ccc(N2CCN(/N=C/c3ccncc3)CC2)cc1 | 0.6% | -4 | -1% | 2%
CCc1cccc(NC(=S)N(CCN(C)C)C2CCN(C(C)C)CC2)c1 | -0.1% | · | 7% | 1%
COc1ccc(OC)c(S(=O)(=O)NCCCn2ccnc2)c1 | 0.2% | · | 0% | 20%
O=C(O)C(F)=C1c2ccccc2-c2ccccc21 | 0.1% | · | · | -4%
CCCCCCCCSc1n[nH]c(N)n1 | -3.3% | 2 | -16% | -18%
COc1ccc(CC(=O)NCc2nnc(SCC(=O)N3CCN(c4ccccc4)CC3)n2C)cc1 | -3.2% | · | · | 1%
CCOC(=O)Cc1csc(NC(=O)COc2ccc(C)cc2)n1 | 0.5% | -3 | 0% | -1%
COC(=O)[C@]1(C)N[C@H](c2ccc(-c3ccccc3)cc2)[C@@H]2C(=O)N(C)C(=O)[C@@H]21 | -3.0% | · | · | -5%
COc1ccc(NC(=O)CN2CCc3ccccc3C2)c([N+](=O)[O-])c1 | -8.5% | · | -9% | 17%
CCOC(=O)C1=CC[C@@H](c2cc3ccc(OC)cc3n2C)N(S(=O)(=O)c2ccc(C)cc2)[C@H]1C(=O)OCC | 0.4% | · | · | 5%
COc1ccc(O)c(/C=N/NC(=S)NCCc2ccccc2)c1 | ? | · | 28% | ?
CC(Nc1nc(-c2cccnc2)nc2ccccc12)c1ccc(F)cc1 (stereo unspecified) | -1.5% | · | 14% | 14%
CC1CCc2nc(NC(=O)CN3CCN(c4ccc(F)cc4)CC3)sc2C1 (stereo unspecified) | -1.5% | -8 | 3% | -9%
O=C1CN(C(=O)c2ccc(Br)o2)C(c2ccc(F)cc2)c2cc(Cl)ccc2N1 (stereo unspecified) | -3.1% | -10 | 15% | -13%
Cc1ccc(-c2ocnc2C(=O)N2CCN(C(=O)c3cccs3)CC2)cc1 | 0.1% | · | 0% | -2%
CCCCn1c(N)c(N(CCC(C)C)C(=O)C(C)N2C(=O)c3ccccc3C2=O)c(=O)[nH]c1=O (stereo unspecified) | ? | · | · | -4%
O=C(NN=C1CCC(=NNC(=O)c2cccnc2)CC1)c1cccnc1 | 0.1% | -7 | -4% | -6%
CCOC(=O)N/N=C(\C)c1cccs1 | 0.0% | -2 | -48% | 14%
CCNCC(=O)N1c2ccccc2CCc2ccc(NC(=O)OCC)cc21 | ? | · | -6% | -12%
CCN(CC)CCNC(=O)CS(=O)Cc1nc(-c2ccc(C)cc2)oc1C (stereo unspecified) | -3.4% | -1 | 0% | -9%
Cc1cccc(C(=O)Nc2cccc(C(=O)N3CCOCC3)c2)c1 | 1.6% | -15 | -17% | -3%
COCC(=O)N(C)C[C@H]1N[C@@](C)(C(=O)OC)[C@H]2C(=O)N(C)C(=O)[C@@H]12 | 0.2% | · | · | -3%
C=CCOC(=O)C1=C(C)Nc2nnnn2C1c1cc(OC)ccc1OC (stereo unspecified) | ? | -26 | 2% | 2%
Cc1ccc(S(=O)(=O)NNC(=S)NC(C)(C)C)cc1 | 0.2% | 1 | 2% | -11%
Cc1nnc(NC(=O)C(C)Sc2nnc(CNC(=O)c3ccccc3F)n2C)s1 (stereo unspecified) | 8.0% | · | · | -1%
Cc1ccc(S(=O)(=O)N2CCN(C(=O)c3n[nH]c4ccccc34)CC2)cc1 | 0.1% | · | · | 1%
Cc1ccc(C(=O)N2CCC(n3nccc3NC(=O)C3CCOC3)CC2)cc1 (stereo unspecified) | 0.8% | · | -1% | 2%
Cc1ccc(/C=C/C(=O)c2ccc([N+](=O)[O-])o2)cc1 | 0.2% | · | · | 1%
CC(=O)C1=C(O)CCC1=NCCc1ccccc1 | 0.3% | -2 | 6% | 5%
CC(C)(C)OC(=O)C[C@@H]1C/C=C\C[C@H](CC(=O)NCCO)C(=O)N[C@@H](c2ccccc2)COC1=O | 0.9% | · | · | 27%
O=C(Nc1ccc(NC(=O)C2CCCCC2)nc1)c1ccco1 | -0.1% | 7 | -50% | -12%
CN(Cc1ccccc1)Cc1ccccc1F | 0.8% | -4 | 4% | -17%
ClCC(CNCc1ccccc1)c1ccccc1 (stereo unspecified) | 0.7% | · | · | 9%
CC(=O)c1c(C)[nH]c(C(=O)CN2CCN(S(=O)(=O)c3ccc(C(C)C)cc3)CC2)c1C | -3.7% | · | · | 3%
CCOC(=O)N1CCN(C(=O)CSC2=NS(=O)(=O)c3cc(F)ccc3N2)CC1 | -2.4% | · | · | -19%
O=C(Nc1cc(Cl)ccc1-n1cncn1)c1ccc(F)c(S(=O)(=O)N2CCOCC2)c1 | 0.0% | · | · | -7%
N#Cc1c(-c2ccccc2)nc(SCc2ccc(Cl)cc2)[nH]c1=O | -2.6% | · | 3% | 2%
CC(=O)Nc1cccc(NC(=O)CCn2cnc3cc(C)c(C)cc32)c1 | -2.4% | -2 | -9% | 0%
Cc1ccc(NC(=O)Cn2c(=O)ccn(Cc3ccccc3)c2=O)cc1S(=O)(=O)N1CCOCC1 | -5.3% | · | · | 5%
Cc1ccc(CSc2nc3ccncc3n2CC(=O)Nc2cc(C)cc(C)c2)cc1 | 0.3% | -5 | -33% | -3%
O=C(NC12CC3CC(CC(C3)C1)C2)C1CCCN1C(=O)NC1CCCCC1 (stereo unspecified) | -2.3% | -6 | -4% | 1%
CCc1nc(N2CCOCC2)c(C#N)c2c1COC(C)(C)C2 | -0.6% | 8 | -14% | 16%
Cn1c(=O)cc(N2CCc3ccccc32)[nH]c1=O | ? | 1 | 0% | -16%
Cc1cccc(OCC(=O)Nc2ccc3oc(=O)ccc3c2)c1C | -3.1% | · | -1% | 17%
Cc1ccnc(N2C(=O)c3ccccc3C2Nc2cccc(C)c2C)c1 (stereo unspecified) | -2.8% | -3 | -18% | 8%
